gsp ag: agonists of gsp mutant (McCune-Albright syndrome); gsp mutant cells, cAMP HTRF, 30 min; control for the full effect not named in the record; Potency, µM (doses to about 76.9 µM), for the others: at the top dose activation (cAMP increase), actives largely listed as activators; actives 0.13% (n = 340,000); AID 624287; active = well fitted activation curve with a large enough effect; inconclusive = small, poorly fitted or top-dose-only effect, or another doubt; inactive = no such curve, though single readings can be large or run the other way; cell line not stated here;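 note: phosphodiesterase inhibitor Ro 20-1724 added with compounds to block cAMP breakdown; potency is the fitted concentration of half-maximal effect; nearly all actives have a fitted effect of over 60% in size; about a fifth of the inactives were tested at one dose only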
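Cells in DMEM/10% FBS with G418 were pretreated with compounds in DMSO plus […] (300 uM stock) for 30 min at 37C. cAMP was measured by HTRF (cAMP-d2 plus anti-cAMP antibody-K) after 30 min at room temperature.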
Menin-MLL FL inh: menin-MLL binding inhibition, fluorescein peptide. Fluorescence polarization, fluorescein-MLL peptide displacement from menin. FP activity change, % at 61.4 µM. 290,000 tested, under 10 active. AID 1766; inconclusive = falling polarisation curve, or a change in total fluorescence; inactive = total fluorescence flat and polarisation flat or rising; no compound was filed as active; the % refers to the polarisation; negative = inhibition;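 note: % of control where 0% means no effect; inhibitors lower the polarisation; unlabelled MLL peptide was the positive control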
gsp antagonist: antagonists of gsp mutant (McCune-Albright syndrome). gsp-mutant cells, cAMP HTRF, 30 min; control for the full effect not named in the record. Potency, µM (highest dose often 76.9 µM), without a hit: at the top dose activity change, negative = inhibition, actives largely listed as inhibitors. actives 0.4% (n = 340,000). AID 624288; active = falling curve of any shape with a large fitted effect; inconclusive = falling curve, mostly with a smaller effect; inactive = flat or rising curve; cell line not stated here;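 note: intracellular cAMP measured with PDE inhibitor Ro 20-1724 present during compound exposure; potency is the fitted concentration of half-maximal effect; % is set by controls: 0 for no effect and ±100 for the full control effect; nearly all actives have a fitted effect of over 65% in size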
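HTRF cAMP measurement after 30 min RT detection following 30 min, 37C compound treatment alongside […] (added as 300 uM solution) in G418-selected cells seeded at 2000/well and grown 16–24 h.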
PINK1 expr mod: changes PINK1 expression. PINK1 immunofluorescence, high-content cytometry, 24 h. Potency, µM (doses to about 76.6 µM), inactives show at the highest dose activation (PINK1 increase), hits mostly activators. actives 0.2% (n = 410,000). AID 624263; active = well fitted activation curve with a large enough effect; inconclusive = small, poorly fitted or top-dose-only effect; inactive = flat fitted curve, though single readings scatter; cell line not stated here;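 note: potency is the fitted concentration of half-maximal effect; % of control where 0% means no effect; nearly all actives have a fitted effect of over 65% in size; a mitochondrial uncoupler was the plate control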
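PINK1 protein, normally rapidly degraded, was detected by immunofluorescence after 24 hour compound treatment of a stable cell line. Titration data (5 concentrations) came from laser-scanning cytometry, with CCCP-treated wells as controls.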
D2 agonist: activates the human D2 dopamine receptor; P14416; DiscoveRx PathHunter D2 beta-arrestin, luminescence, 90 min; 100% = 57 uM dopamine signal; activation, % (no concentration beside the values); actives 0.084% (n = 360,000); AID 624465; in the data active = activation above about 40%; inconclusive = about 15% to 40%; inactive = below about 15%; note: compound concentration not given in the record; the text of the record calls up to 30% inactive
Target sequence (P14416 whole entry, looked up): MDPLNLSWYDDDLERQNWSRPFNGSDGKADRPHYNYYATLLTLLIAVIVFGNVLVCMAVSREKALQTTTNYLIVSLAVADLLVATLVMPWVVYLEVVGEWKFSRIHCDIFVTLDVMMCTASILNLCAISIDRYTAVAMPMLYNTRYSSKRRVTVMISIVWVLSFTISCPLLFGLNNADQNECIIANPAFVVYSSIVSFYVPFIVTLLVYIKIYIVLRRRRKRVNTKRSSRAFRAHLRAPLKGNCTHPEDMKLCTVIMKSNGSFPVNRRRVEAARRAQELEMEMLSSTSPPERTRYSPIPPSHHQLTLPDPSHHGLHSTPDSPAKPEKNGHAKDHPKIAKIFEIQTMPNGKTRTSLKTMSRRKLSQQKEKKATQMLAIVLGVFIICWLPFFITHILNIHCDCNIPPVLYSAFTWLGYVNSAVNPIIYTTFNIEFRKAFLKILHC
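Agonist mode: compounds alone added to overnight-plated D2 PathHunter cells for 90 min at 37 C, with 57 uM final dopamine (EC100) defining full response. Beta-arrestin recruitment detected by chemiluminescent reagent, read after 1 h at ambient temperature.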
Sfp PPTase inh: blocks B. subtilis Sfp PPTase activity. AID 1490. actives 3.5% (n = 310,000). Biochemical Sfp PPTase activity, qHTS. Potency, µM, without a hit: max response, negative = inhibition, usual class: inhibitors; active = well fitted inhibition curve with a large enough effect; inconclusive = small, poorly fitted or top-dose-only effect, or another doubt; inactive = no such curve, though single readings can be large or run the other way;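 note: the enzyme is Sfp with the accession as filed and its product quenches rhodamine fluorescence; potency is the fitted concentration of half-maximal effect; 0% = enzyme reaction without inhibitor and -100% = no enzyme wells; top concentration of the series not given in the record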
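Reaction rates are the 30-min fluorescence difference (ex 525, em 598 nm) in wells containing 15 nM Sfp, 5 uM rhodamine-CoA and 12.5 uM BHQ-2-YbbR at pH 7.6 with 10 mM MgCl2.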
ClpP mod: qHTS Assay for Activators of ClpP; purified B. subtilis ClpP, FRET peptide cleavage, 20 min; actives 1.9% (n = 340,000); ATP-dependent Clp protease proteolytic subunit (Bacillus subtilis (strain 168)), P80244; Potency, µM (highest dose often 57.5 µM), inactives show top-dose activity change, negative = active; active = well fitted falling curve with a large enough effect; inconclusive = small, poorly fitted or top-dose-only effect; inactive = no such curve, though single readings can be large or run the other way; note: potency is the fitted concentration of half-maximal effect; the source files actives as falling curves though it sought activators and does not explain the sign; nearly all actives have a fitted effect of over 65% in size; many hits overshoot -100%
Target sequence (P80244 whole entry, looked up): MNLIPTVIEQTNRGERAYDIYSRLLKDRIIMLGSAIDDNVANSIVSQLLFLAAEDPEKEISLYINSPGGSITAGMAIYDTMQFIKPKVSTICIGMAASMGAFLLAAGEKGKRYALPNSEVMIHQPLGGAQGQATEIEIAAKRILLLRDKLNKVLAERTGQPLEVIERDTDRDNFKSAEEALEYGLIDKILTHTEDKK
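FRET quenching reversal measured ClpP activation: 10 microg/mL B. subtilis ClpP at pH 8 with the FRET-FV decapeptide, read at 430 nm after 320 nm excitation. The 20-min minus 0-min signal was scaled between DMSO/no-enzyme wells and ADEP (5.8 microM final).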
* marks the source's active call; other numbers are inactive results; u = inconclusive; x = not tested or not shown; [ ] = dose if it differs, or a comment.

Results follow in this order: gsp ag | PINK1 expr mod | Sfp PPTase inh | ClpP mod | D2 agonist | Menin-MLL FL inh | gsp antagonist
[1] COCCNC(=O)Nc1ccc2nc(-c3ccco3)c(-c3ccco3)nc2c1
→ 3.5% | 0.1% | 4.47µM* | -10.9% | u | u | -9.3%
[2] O=c1[nH]c(CN2CCN(c3ncccn3)CC2)nc2c(Br)cc(Br)cc12
→ 21.4%[15.4 µM] | 3.2% | -0.4% | x | -4.4 | 2.4 | 4.6%
[3] CCO/C(C)=N/n1c2nc3ccccc3nc2c2c(=O)n(C3CCCC3)c(C)nc21
→ 0.3%[15.4 µM] | 0.0% | -10.1% | 1.2% | -4.7 | 0.4 | 1.6%
[4] CC(=O)/C=C/n1c(=S)oc2ccccc21
→ -3.6%[15.4 µM] | 23.4% | 0.0% | -22.2% | -4.9 | 0.4 | 2.1%
[5] CCn1cc(C(=S)N2CCC(C(N)=O)CC2)c2ccccc21
→ -0.1% | 1.1% | 8.4% | x | 8.1 | 2.1 | 1.4%
[6] CCOC(=O)C1=NN(C(=O)Cc2ccccc2)C(O)(C(C)(C)C)C1 (stereo unspecified)
→ -1.5%[15.4 µM] | 2.3% | -1.9% | x | 5.2 | 2.4 | -21.4%
[7] O=S(=O)(c1cc(F)ccc1F)N1CCC2(CC1)OCCN2S(=O)(=O)c1cccs1
→ -1.0%[15.4 µM] | -0.7% | x | -1.3% | -2.8 | x | -8.9%
[8] O=C(CN1CCN(S(=O)(=O)c2ccc(Cl)cc2)CC1)Nc1ccc(N2CCOCC2)cc1
→ -35.9%[inhibitor] | -0.6% | 3.3% | 1.2% | 4.3 | 1.2 | -1.4%
[9] CCOc1cc2c(C#N)c(N3CCOCC3)nc(N)c2c(N)n1
→ u | -1.5% | 0.7% | 31.6µM* | -2.0 | -7.5 | 5.3%
[10] CCCCCN(C(=O)CCC(=O)OC(C)C(=O)NCc1ccccc1)c1c(N)n(CCCC)c(=O)[nH]c1=O (stereo unspecified)
→ 19.0%[15.4 µM] | 0.2% | x | x | -4.8 | x | -5.2%
[11] COc1ccc(OCc2nnc(NC(=O)Nc3ccc(F)cc3)s2)cc1
→ -20.9% | 4.0% | -4.7% | 1.3% | -3.7 | 0.9 | 45.2%[activator]
[12] Cc1cc(O)c(C(=O)c2ccccc2C(=O)O)cc1C
→ -36.9%[inhibitor] | 0.7% | 3.7% | 1.3% | -2.5 | 2.2 | -12.2%
[13] CCC(=O)C1CCCN(C(=O)CCc2nnc(C3(c4ccc(Cl)cc4)CCC3)o2)C1 (stereo unspecified)
→ -82.6%[inhibitor] | -1.7% | 4.3% | 1.5% | -1.0 | x | -28.3%
[14] COc1cccc(C2(O)CCN(C(=O)C(C)C)CC2)c1
→ u | 1.0% | 3.9% | 2.0% | -5.4 | 2.3 | 8.5%
[15] CCSc1nnc2nc(C)cc(C)n12
→ 8.4% | -2.0% | 10.4% | -12.6% | -4.7 | 0.0 | 14.2%
[16] Cc1ccc(O)c(-c2cc(-c3ccccc3[N+](=O)[O-])[nH]n2)c1
→ -4.7% | 2.1% | 1.4% | 0.2% | -3.6 | -1.3 | u
[17] Cc1c(C(=O)N2CCN(c3ccc(F)cc3)CC2)sc2ncnc(N3CCN(c4ccccn4)CC3)c12
→ 16.8%[15.4 µM] | -0.4% | -12.1% | x | 4.0 | -5.4 | u
[18] COc1cc(OC)c(C2=NOC(C(=O)Nc3c(C)nn(CC(=O)N4CCCC4)c3C)C2)cc1Cl (stereo unspecified)
→ -55.0%[inhibitor] | x | 1.3% | -7.0% | 1.1 | 2.6 | -10.6%
[19] Cc1cccc(N2CCN(CC(=O)N(C3CCCC3)C3CCS(=O)(=O)C3)CC2)c1C (stereo unspecified)
→ -2.4%[15.4 µM] | 1.6% | x | 0.6% | -1.9 | x | 4.8%
[20] Brc1cccc(OCCCNC2CCCC2)c1
→ u | 1.3% | -5.2% | 1.7% | -5.6 | -6.9 | 7.2%
[21] CCC(=O)Nc1nnc(SCC(=O)NCC2CCCO2)s1 (stereo unspecified)
→ -46.9%[inhibitor] | -2.4% | x | -3.0% | -2.9 | x | 9.5%
[22] CCOc1ccc(/C=C/C(=O)Nc2cccc(C(C)=O)c2)cc1
→ -7.2% | 16.9% | 0.2% | 1.8% | 2.7 | 0.8 | -6.6%
[23] COc1ccc(C2CC(c3ccccc3)=NN2C(=O)CCC(=O)O)cc1 (stereo unspecified)
→ 18.8% | 1.3% | 12.6% | x | -3.2 | 1.4 | -16.0%
[24] CC1(C)Cc2cccc(OCC(=O)OCC(=O)Nc3ccc(S(N)(=O)=O)cc3)c2O1
→ -26.0% | 1.9% | x | -0.4% | -3.0 | x | x
[25] CCC(=O)OCC(=O)Nc1ccc(OC)cc1[N+](=O)[O-]
→ 16.7% | -0.1% | 17.7% | x | -1.4 | 2.8 | 0.9%
[26] CC(C)CN1C(=O)C(=O)N(CC(=O)N(C)CC(=O)Nc2ccc(F)cc2)C1=O
→ -5.6% | 1.5% | x | -0.6% | -3.6 | x | 10.8%
[27] O=C(Cc1c2ccccc2nc2ccccc12)c1ccccc1
→ 14.4% | 12.0% | 7.7% | -5.6% | -1.4 | 0.3 | 12.9%
[28] c1ccc(-c2ccccc2OCCOCCN2CCc3ccccc3C2)cc1
→ 15.0% | 15.6% | -19.9% | x | -1.8 | 2.3 | -1.4%
[29] CC1(c2ccccc2Br)NC(=O)N(CC(=O)N2CCc3ccccc3C2)C1=O (stereo unspecified)
→ 2.0%[15.4 µM] | -0.5% | x | 2.5% | -3.8 | x | 10.9%
[30] Cc1cccc(Nc2nc(C)cc(C)c2C#N)c1
→ -31.6% | 1.0% | 4.9% | -25.2% | 1.1 | 0.0 | -7.1%
[31] O=C(CNC(=O)c1ccccc1Br)N/N=C/c1cccs1
→ -1.0% | 1.0% | 13.2% | 1.9% | -10.8 | -0.2 | -11.6%
[32] O=c1[nH]nc(CNc2ccc(Cl)cc2Cl)c2ccccc12
→ 1.4% | 2.7% | -3.4% | 2.1% | -4.0 | 3.7 | 4.3%

Rewritten with one line to a screen: entries from further up
20	Brc1cccc(OCCCNC2CCCC2)c1
21	CCC(=O)Nc1nnc(SCC(=O)NCC2CCCO2)s1 (stereo unspecified)
22	CCOc1ccc(/C=C/C(=O)Nc2cccc(C(C)=O)c2)cc1
23	COc1ccc(C2CC(c3ccccc3)=NN2C(=O)CCC(=O)O)cc1 (stereo unspecified)
24	CC1(C)Cc2cccc(OCC(=O)OCC(=O)Nc3ccc(S(N)(=O)=O)cc3)c2O1
25	CCC(=O)OCC(=O)Nc1ccc(OC)cc1[N+](=O)[O-]
26	CC(C)CN1C(=O)C(=O)N(CC(=O)N(C)CC(=O)Nc2ccc(F)cc2)C1=O
27	O=C(Cc1c2ccccc2nc2ccccc12)c1ccccc1
28	c1ccc(-c2ccccc2OCCOCCN2CCc3ccccc3C2)cc1
29	CC1(c2ccccc2Br)NC(=O)N(CC(=O)N2CCc3ccccc3C2)C1=O (stereo unspecified)
30	Cc1cccc(Nc2nc(C)cc(C)c2C#N)c1
31	O=C(CNC(=O)c1ccccc1Br)N/N=C/c1cccs1

Assay by compound	20	21	22	23	24	25	26	27	28	29	30	31
gsp ag	u	-46.9%[inhibitor]	-7.2%	18.8%	-26.0%	16.7%	-5.6%	14.4%	15.0%	2.0%[15.4 µM]	-31.6%	-1.0%
PINK1 expr mod	1.3%	-2.4%	16.9%	1.3%	1.9%	-0.1%	1.5%	12.0%	15.6%	-0.5%	1.0%	1.0%
Sfp PPTase inh	-5.2%	x	0.2%	12.6%	x	17.7%	x	7.7%	-19.9%	x	4.9%	13.2%
ClpP mod	1.7%	-3.0%	1.8%	x	-0.4%	x	-0.6%	-5.6%	x	2.5%	-25.2%	1.9%
D2 agonist	-5.6	-2.9	2.7	-3.2	-3.0	-1.4	-3.6	-1.4	-1.8	-3.8	1.1	-10.8
Menin-MLL FL inh	-6.9	x	0.8	1.4	x	2.8	x	0.3	2.3	x	0.0	-0.2
gsp antagonist	7.2%	9.5%	-6.6%	-16.0%	x	0.9%	10.8%	12.9%	-1.4%	10.9%	-7.1%	-11.6%

32	O=c1[nH]nc(CNc2ccc(Cl)cc2Cl)c2ccccc12

Assay by compound	32
gsp ag	1.4%
PINK1 expr mod	2.7%
Sfp PPTase inh	-3.4%
ClpP mod	2.1%
D2 agonist	-4.0
Menin-MLL FL inh	3.7
gsp antagonist	4.3%
